GLA inh pH 4.5: qHTS Assay for Inhibitors of Human alpha-Galactosidase at pH 4.5; Alpha-galactosidase A (Homo sapiens), P06280; purified enzyme, 4-MU-alpha-Gal fluorescence, pH 4.5; activity change, negative = inhibition, % at 105 µM; 230,000 tested, under 10 active; AID 1467, 2008; inconclusive = small, poorly fitted or top-dose-only inhibition, or a rising curve; inactive = flat fitted curve, though single readings scatter; no compound was filed as active;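 also: 0% = full activity with enzyme and -100% = basal without enzyme; dose as in the result columns while the protocol names 77 µM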
Target sequence (P06280 whole entry, looked up): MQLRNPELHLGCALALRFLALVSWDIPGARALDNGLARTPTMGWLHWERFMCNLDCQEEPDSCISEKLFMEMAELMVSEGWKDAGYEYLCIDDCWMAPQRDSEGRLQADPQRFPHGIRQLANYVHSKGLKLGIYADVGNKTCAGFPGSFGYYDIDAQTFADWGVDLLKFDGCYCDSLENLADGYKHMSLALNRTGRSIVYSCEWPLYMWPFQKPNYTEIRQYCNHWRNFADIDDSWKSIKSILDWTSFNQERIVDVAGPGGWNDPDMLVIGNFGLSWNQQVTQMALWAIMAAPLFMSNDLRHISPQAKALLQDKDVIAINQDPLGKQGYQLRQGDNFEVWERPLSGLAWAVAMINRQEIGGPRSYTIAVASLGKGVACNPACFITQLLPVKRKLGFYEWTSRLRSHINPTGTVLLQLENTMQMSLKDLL
miR-21 reporter: qHTS Assay for Modulators of miRNAs and/orActivators of miR-21 | HeLa miR-21 FLuc reporter, luciferase, 48 h | AID 2288, 2010 | Potency, µM (top dose mostly 38.3 µM), for the others: at the highest dose reporter change, positive = more light | 340,000 tested, under 10 active; active = well fitted rising curve with a large enough effect; inconclusive = small, poorly fitted or top-dose-only effect; inactive = no such curve, though single readings can be large or run the other way;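 also: % of control where 0% means no effect; miR-21 action dims this reporter so a rising signal means less miR-21 action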
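HeLa miR-21-FLuc reporter line, endogenous miR-21; 2000 cells/well in DMEM/10% FBS; compound titration up to ~40uM final, 48 h, 37 degree Celsius; luciferase detection reagent, 15 min lysis, CCD luminescence.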
Rango complex inh: qHTS Assay for Inhibitors of Rango (Ran-regulated importin-beta cargo) - Importin beta complex formation; Rango CFP/YFP FRET sensor + importin beta, 45 min; Potency, µM (highest dose often 92.2 µM), inactives show at the highest dose inhibition of complex formation; hit rate 0.031% among 340,000; AID 540263, 2011; active = rising FRET ratio curve, often small or poorly fitted; inconclusive = mostly compound fluorescence or quenching in the first reads; inactive = flat curves in all reads;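 also: potency is read from the fitted curve at half-maximal effect; 0% = DMSO wells and 100% = buffer wells lacking importin beta; nearly all actives have a fitted effect of over 15% in size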
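FRET biosensor (snurportin 1 IBB flanked by EYFP and cerulean), 50 nM, with compound 5 min, then 0.125 microM importin beta in PBS, 1 mM DTT, 0.02% Tween-20, 0.1% BSA. CFP/YFP ratio read after 45 min at room temperature; pre-read flags interference.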
Rango dissoc inh: qHTS Assay for Inhibitors of RanGTP induced Rango (Ran-regulated importin-beta cargo) - Importin beta complex dissociation. Biochemical FRET Rango-importin beta, RanGTP-induced dissociation. Potency, µM (titrated, usually from 46.1 µM), for inactives: at the highest dose activity change, negative = inhibition. hit rate 0.071% among 340,000. AID 540253, 2011; active means falling FRET ratio curve, often poorly fitted, with flat reads before Ran was added; inconclusive means other falling curves, or compound fluorescence or quenching; inactive means flat or rising ratio curve;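 also: potency is read from the fitted curve at half-maximal effect; % of control where 0% means no effect; nearly all actives have a fitted effect of over 45% in size; -100% = wells without RanGTP and RCC1; the record marks most hits as doubtful in a second field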
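Rango (0.1 uM)–importin beta (0.25 uM) complex; RanGTP-RCC1 trigger; 45 min RT; CFP/YFP FRET read.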
* marks the source's active call; other numbers are inactive results; ? = inconclusive; · = no result given; & = joins results of further samples.

Rango complex inh	GLA inh pH 4.5	miR-21 reporter	Rango dissoc inh	mol
0.4%	0	-2%	0%	CC(C)Sc1oc(-c2ccco2)nc1S(=O)(=O)c1ccccc1
0.6%	-8	2%	-4%	COc1ccc(S(=O)(=O)N(Cc2nc3ccccc3c(=O)[nH]2)C2CCCC2)cc1
-0.2%	-14	-53%	-5%	CCOc1cc(/C=N/Nc2ccc(C(=O)O)cc2)ccc1OC(=O)c1ccccc1C
1.2%	·	-2%	7%	O=C(CCn1c(=O)oc2ccccc21)Nc1cccc(Br)c1
-3.7%	-4	9%	0%	COc1ccc(CN(C)Cc2nc(Cc3cccc(F)c3)no2)c2cccnc12
-1.2%	-1	-25%	27%	CCN(C(=O)/C=C/c1ccc2c(c1)OCO2)c1ccccc1
1.0%	2	2%	19%	CCC(C(=O)NC1CCCC1)n1c(SCc2cccc(C)c2)nc2ccncc21 (stereo not given)
6.2%	-1	24%	-20%	CC(=O)C1=NN(c2ccccc2)C(c2cccs2)N1c1ccc(N(C)C)cc1 (stereo not given)
4.8%	1	9%	-17%	Cc1cc(C)n(-c2nnc(C)n2/N=C/c2cc(Br)ccc2OCc2ccccc2)n1
?	·	10%	?	Cn1c(N)c(-c2ccccc2)c2ccc([N+](=O)[O-])cc2c1=O
-2.3%	1	-2%	16%	O=C(CSc1nnc(CNc2ccccc2)o1)N1CCN(C(=O)c2ccco2)CC1
-0.7%	·	·	-3%	Cc1ccc(C)c(NC(=O)COC(=O)c2ccc3c(c2)OCCO3)c1
-4.0%	·	0%	-19%	CCN(c1ccccc1)S(=O)(=O)c1csc(C(N)=O)c1
-3.0%	·	·	32%	COc1ccc(NS(=O)(=O)c2cccc(C(=O)N3CCN(Cc4ccc5c(c4)OCO5)CC3)c2)cc1
-0.6%	2	-40%	1%	O=C(Nc1cnc2sc3c(n2c1=O)CCCC3)c1ccc(F)cc1
?	2	-8%	?	CCCOc1ccccc1-c1nc2c([nH]1)c(=O)[nH]c(=O)n2C
?	·	2%	-4%	O=C(O)CC(c1ccc(OC2CCCC2)cc1)N1C(=O)c2ccccc2C1=O (stereo not given)
?	·	·	-3%	O=C(CN1C(=O)/C(=C2/SC(=S)N(CCS(=O)(=O)O)C2=O)c2ccccc21)Nc1cccc(C(F)(F)F)c1
3.4%	·	0%	30%	COc1ccc(C(=O)NC(=S)NCc2cccnc2)cc1Cl
12%	1	3%	11%	COc1ccc(C)cc1-n1nnnc1SCC(=O)Nc1cccnc1Cl
-1.6%	·	·	1%	CSc1ccccc1NC(=O)COc1ccc2c(c1)OCO2
-0.2%	-11	?	-22%	Cc1ccc(-n2c(O)c(/C=N/Nc3ccc(S(=O)(=O)N4CCOCC4)cc3[N+](=O)[O-])c3ccccc3c2=O)c(C)c1
-0.7%	·	6%	2%	O=C(NCCc1c[nH]c2ccccc12)C1CCN(S(=O)(=O)c2ccccc2)CC1
6.4%	6	-5%	-8%	CCC1(C)Cc2c(sc3nn[nH]c(=O)c23)CO1 (stereo not given)
0.6%	·	·	-18%	O=C(CCS(=O)(=O)c1ccc(Cl)cc1)N1CCCc2ccccc21
0.7%	·	-4%	-9%	COc1ncnc(OC)c1S(=O)(=O)NCc1ccccc1
-1.7%	5	-1%	16%	CC(C)N(C(=O)CSc1nc2ccccc2n1-c1ccccc1)C(C)C
-1.7%	·	0%	10%	COC(=O)CN1C(=O)C(C)(C)Oc2ccc(C(=O)NC3CCCC3)cc21
-2.6%	·	·	12%	N#CCCN(C(=O)COC(=O)CNC(=O)c1cccs1)c1ccc(F)cc1
1.4%	6	0%	-9%	Cc1ccc(S(=O)(=O)c2nc(NC3CCS(=O)(=O)C3)sc2Cl)cc1 (stereo not given)

The list goes on; it opens with the five that closed the last part.
Rango complex inh	GLA inh pH 4.5	miR-21 reporter	Rango dissoc inh	mol
0.7%	·	-4%	-9%	COc1ncnc(OC)c1S(=O)(=O)NCc1ccccc1
-1.7%	5	-1%	16%	CC(C)N(C(=O)CSc1nc2ccccc2n1-c1ccccc1)C(C)C
-1.7%	·	0%	10%	COC(=O)CN1C(=O)C(C)(C)Oc2ccc(C(=O)NC3CCCC3)cc21
-2.6%	·	·	12%	N#CCCN(C(=O)COC(=O)CNC(=O)c1cccs1)c1ccc(F)cc1
1.4%	6	0%	-9%	Cc1ccc(S(=O)(=O)c2nc(NC3CCS(=O)(=O)C3)sc2Cl)cc1 (stereo not given)
-2.7%	·	11%	15%	O=C(Nc1ccccc1C(=O)O)c1cc(S(=O)(=O)Nc2cccc(F)c2)ccc1Cl
-2.7%	1	-6%	2%	CCCCN1C(=O)C(NC(C)=O)c2ccccc21 (stereo not given)
-0.1%	-1	-6%	4%	O=C(/C=C/c1ccco1)N(Cc1cccc(Br)c1)C1CCS(=O)(=O)C1 (stereo not given)
-0.8%	-1	6%	-3%	CCOP(=O)(O)c1ccccc1OCCOc1ccccc1P(=O)(O)OCC
-2.1%	-1	-9%	-7%	O=C(Nc1nnc(C2CC2)s1)c1ccc(Cl)c(S(=O)(=O)N2CCc3ccccc3C2)c1
0.4%	·	·	8%	CCn1nc(C(=O)N2CCc3ccccc32)c2ccccc2c1=O
0.2%	4	-1%	4%	CCN1CCN(C(=S)c2ccc(SC)cc2)CC1
3.3%	·	-2%	1%	COC(=O)[C@H](Cc1ccccc1)NC(=O)NC(C)CCc1ccccc1 (stereo not given in full)
?	2	-4%	?	Cc1ccc(NC(=O)c2cccs2)cc1NC(=O)c1ccco1
2.1%	8	2%	0%	CCCC1=C(C(=O)OCC)C(c2ccccc2OC)NC(=O)N1 (stereo not given)
1.3%	5	-12%	27%	CC(C)CCn1c(SCCN2CCOCC2)nc2c1c(=O)[nH]c(=O)n2C
-2.6%	·	-3%	6%	Cc1ccc(OCCn2cnc3c2c(=O)n(C)c(=O)n3C)cc1
-1.1%	·	-1%	15%	CCCc1cc(=O)oc2cc(OC(C)C(=O)NCC3CCC(C(=O)O)CC3)ccc12 (stereo not given)
-0.3%	2	-5%	2%	Cc1ccc(OCC(=O)NC2CC(C)(C)NC(C)(C)C2)cc1C
0.7%	·	-1%	11%	O=C(c1ccccn1)N1CCCC(N2CCN(Cc3ccc4c(c3)OCO4)CC2)C1 (stereo not given)
-0.8%	·	0%	2%	Brc1ccc(CN2CCN(Cc3c[nH]c4ccccc34)CC2)cc1
-3.9%	8	0%	12%	COc1cccc(OC)c1C(=O)Nc1c(C)n(C)n(-c2ccccc2)c1=O
4.4%	-2	-24%	22%	O=C(CN1CCN(c2ccccc2F)CC1)c1ccc2c(c1)OCO2
0.0%	-25	-3%	1%	Cc1cc(C)n2nc(C(=O)Nc3cccc(S(=O)(=O)N(C)c4ccccc4)c3)nc2n1
·	10	-3%	·	Cc1ccc(N(C(=O)C2COc3ccccc3O2)C(C(=O)NC2CCCCC2)c2cn(C)nc2C)cc1 (stereo not given)
-2.6%	·	·	-24%	Cc1ccc(NC(=O)CN(C)C(=O)c2ccccc2Cc2ccccc2)cc1
2.9%	·	·	-16%	CCOc1ccc(NC(=O)c2c(N)n(C)c(=O)[nH]c2=O)cc1
4.2%	4	0%	18%	CCNC(=O)CSc1nc2ccccc2c(=O)n1-c1cccc(OC)c1
4.8%	1	-5%	-5%	CC(C)(C)c1ccc(S(=O)(=O)NCC(=O)N2CCN(C(=O)c3ccco3)CC2)cc1
1.2%	·	-2%	4%	Cc1ccc(NS(=O)(=O)c2ccc3c(c2)NC(=O)C(C)C(=O)N3)cc1C (stereo not given)
-4.3%	4	9%&7%	-1%	O=C(CN1CCN(c2ccc(Cl)cc2)CC1)Nc1ccc(F)c(F)c1
0.1%	-3	0%	0%	OC(CN1C2=NCCCN2c2ccccc21)c1ccc2c(c1)OCO2 (stereo not given)
2.9%	-4	-10%	8%	CCOC(=O)c1[nH]c(C)c(C(=O)OCC(=O)NC(=O)NC(C)(C)C)c1C
1.2%	·	·	-10%	CC(O)c1nc(C(C)O)n(CC(=O)c2ccccc2)n1 (stereo not given)
-1.9%	2	16%	-12%	CCCCOc1ccc(CN=C(N)N)cc1Cl
0.1%	-17	0%	9%	COc1ccc(C(=O)O/N=C(/c2cccs2)C(C)(C)C)cc1
-1.6%	9	-20%	-5%	Cc1cc(C)nc(SCc2nc3ncccn3c2Br)n1
0.5%	1	-2%	23%	COc1ccc(C)cc1S(=O)(=O)N(C)CC(=O)NC1CC1
?	5	-3%	0%	Cc1ccc(NC(=O)CCC(=O)NNC(=O)c2cccs2)c(C)c1
-1.3%	·	0%	7%	O=S(=O)(c1ccc2ccccc2c1)N1CCOCC1
-2.7%	·	·	-1%	Cc1cccc(NC(=O)CCCN=C2NS(=O)(=O)c3ccccc32)c1C
?	·	·	-5%	Cc1cc(-c2csc(NC(=O)C3=COCCO3)n2)c(C)n1C
-0.5%	-4	-11%	-16%	CCOc1ccc(-n2nc3c(=S)[nH]nc(C)c3c2C)cc1
-0.4%	·	0%	-15%	Cc1cc(N2C(=O)C(O)=C(C(=O)c3ccco3)C2c2cccc(Cl)c2)no1 (stereo not given)
-1.1%	-9	0%	-4%	CCOCCCNC(=O)C(NC(=O)Cc1cccs1)c1ccc(C)cc1 (stereo not given)
2.2%	-17	-1%	8%	CSc1nc(Sc2cccc(Cl)c2)c2ccccc2n1
0.2%	7	-2%	6%	Cc1c(C(=O)Oc2cccc3cccnc23)oc2ccccc12
1.0%	-7	3%	-17%	Cc1cc(NC(=O)CCCn2cc([N+](=O)[O-])cn2)n(Cc2ccc(F)cc2)n1
-4.1%	·	-12%	20%	COc1ccc(NC(=O)c2nnn(CC(=O)Nc3ccc4c(c3)OCO4)c2N)c(OC)c1
?	-1	-24%	0%	O=C(NNC(=O)[C@@H]1CCCC[C@@H]1C(=O)O)Nc1ccccc1
-3.5%	·	·	-11%	C(COC1CC2CC1C1C2CC2OC21)OC1CC2CC1C1C2CC2OC21 (stereo not given)
1.0%	6	5%	7%	COc1cccc(S(=O)(=O)c2nc(C)c3c(n2)CCC3)c1
-1.3%	2	-1%	1%	CN(C(=O)CSc1nnc(-c2ccc(F)cc2)c2ccccc12)C1CCS(=O)(=O)C1 (stereo not given)
2.2%	·	·	9%	Cc1ccc(NCCCn2ccc(NC(=O)OCc3ccccc3)nc2=O)cc1C
3.4%	-3	-3%	2%	Cc1ccc(Cl)c(NC(=O)CN2CCNC(=O)C2)c1Cl
-1.3%	·	·	3%	O=C(Cn1ccc(NC(=O)OCc2ccccc2)nc1=O)NCCc1c[nH]c2ccccc12
-5.5%	·	·	-1%	CN(C)Cc1ccc(CNC(=O)c2ccc(Cl)c(S(=O)(=O)NC3CC3)c2)cc1
-1.7%	1	-26%	13%	CCCCNC(=S)Nc1ccc(Cl)cc1
-0.8%	-7	1%	0%	Cc1ccc(N(C)C(=O)N2CCN(S(=O)(=O)c3ccc(C)c(C)c3)CC2)cc1
-2.8%	-6	-3%	-3%	CC1(C)Cc2ccccc2C(N/N=C/c2ccc(Cl)cc2)=N1
3.4%	·	·	8%	CN(c1ccc(OCC(=O)NC2CCC(O)CC2)cc1)S(=O)(=O)c1ccc(Cl)cc1 (stereo not given)
0.7%	·	0%	-1%	O=C(COc1cccnc1[N+](=O)[O-])NCc1ccccc1
·	-3	4%	·	CCc1cc2c(=O)nc3n(c2s1)Cc1ccccc1/C3=C(/O)c1ccc(F)cc1
-0.5%	3	-59%	-5%	O=C(Nc1ccccc1OC(=O)c1ccc(Cl)cc1)c1ccc(Cl)cc1

An excerpt from above, limited to miR-21 reporter.
smiles | miR-21 reporter
CCOCCCNC(=O)C(NC(=O)Cc1cccs1)c1ccc(C)cc1 (stereo not given) | 0%
CSc1nc(Sc2cccc(Cl)c2)c2ccccc2n1 | -1%

Bioassay records: PubChem, National Center for Advancing Translational Sciences (NCATS)

An excerpt (hit frequency here may not be typical).
